Screening results from PubChem.
Rango release inh: inhibitors of RanGTP-induced Rango-importin beta complex dissociation. O95149+P62826. Biochemical FRET Rango-importin beta, RanGTP-induced dissociation. Potency, µM (highest dose often 46.1 µM), inactives show top-dose activity change, negative = inhibition. 340,000 tested, 0.071% active; active means falling FRET ratio curve, often poorly fitted, with flat reads before Ran was added; inconclusive means other falling curves, or compound fluorescence or quenching; inactive means flat or rising ratio curve;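 further: potency means the concentration at half of the fitted maximal effect; % of control where 0% means no effect; nearly all actives have a fitted effect of over 45% in size; -100% = wells without RanGTP and RCC1; the record marks most hits as doubtful in a second field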
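Compounds sat 5 min at room temperature with 0.1 uM Rango biosensor plus 0.25 uM importin beta, then FRET pre-read. RanGTP-RCC1 (0.6 uM Ran, 2mM GTP, 0.2 uM RCC1) added for 45 min, and the CFP/YFP post-read measured blocked complex dissociation.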
GLA inh pH 4.5: inhibitors of human alpha-galactosidase A at pH 4.5; 230,000 tested, under 10 active; purified enzyme, 4-MU-alpha-Gal fluorescence, pH 4.5; activity change, negative = inhibition, % at 105 µM; P06280; AID 1467; inconclusive = small, poorly fitted or top-dose-only inhibition, or a rising curve; inactive = flat fitted curve, though single readings scatter; no compound was filed as active;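 further: 0% = full activity with enzyme and -100% = basal without enzyme; dose as in the result columns while the protocol names 77 µM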
Target sequence (P06280 whole entry, looked up): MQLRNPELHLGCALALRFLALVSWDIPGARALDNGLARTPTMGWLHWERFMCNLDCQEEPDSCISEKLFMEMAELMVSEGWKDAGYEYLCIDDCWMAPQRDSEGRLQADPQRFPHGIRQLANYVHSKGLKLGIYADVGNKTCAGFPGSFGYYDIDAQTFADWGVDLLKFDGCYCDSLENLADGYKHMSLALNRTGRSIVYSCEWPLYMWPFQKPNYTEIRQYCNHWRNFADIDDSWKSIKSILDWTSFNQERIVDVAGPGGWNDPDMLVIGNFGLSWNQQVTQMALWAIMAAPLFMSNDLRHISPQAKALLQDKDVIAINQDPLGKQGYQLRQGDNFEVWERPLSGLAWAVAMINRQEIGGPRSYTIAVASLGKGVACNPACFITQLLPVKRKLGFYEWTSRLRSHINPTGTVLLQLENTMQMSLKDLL
Rango complex inh: inhibitors of Rango-importin beta complex formation; Q14974; Rango CFP/YFP FRET sensor + importin beta, 45 min; Potency, µM (highest dose often 92.2 µM), for inactives: at the highest dose inhibition of complex formation; 340,000 tested, 0.031% active; AID 540263; active = rising FRET ratio curve, often small or poorly fitted; inconclusive = mostly compound fluorescence or quenching in the first reads; inactive = flat curves in all reads;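 further: potency means the concentration at half of the fitted maximal effect; 0% = DMSO wells and 100% = buffer wells lacking importin beta; nearly all actives have a fitted effect of over 15% in size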
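FRET biosensor Rango (snurportin 1 IBB between N-terminal EYFP and C-terminal Cerulean), 50 nM in PBS/1 mM DTT/0.02% Tween-20/0.1% BSA, preincubated 5 min RT with compound; 0.125 microM importin beta added, 45 min RT, CFP/YFP FRET ratio read.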
miR-21 FLuc: raises the signal of a miR-21 reporter | HeLa miR-21 FLuc reporter, luciferase, 48 h | Potency, µM (titrated, usually from 38.3 µM), for the others: at the top dose reporter change, positive = more light | 340,000 tested, under 10 active | AID 2288; active = well fitted rising curve with a large enough effect; inconclusive = small, poorly fitted or top-dose-only effect; inactive = no such curve, though single readings can be large or run the other way;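 further: % of control where 0% means no effect; miR-21 action dims this reporter so a rising signal means less miR-21 action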
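Compounds were titrated across several concentrations (up to approximately 40 uM) and incubated 48 hours with HeLa miR-21-FLuc reporter cells (miR-21 target sequence downstream of FLuc, endogenous miR-21). Readout was firefly luciferase luminescence after lytic detection reagent.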
* = called active by the depositor; ? = inconclusive; . = not tested or not shown. A portion of the library (hit frequency here may not be typical).

SMILES | Rango release inh | GLA inh pH 4.5 | Rango complex inh | miR-21 FLuc
CCC(=O)Nc1c(C#N)c2nc3ccccc3nc2n1-c1ccc(C)cc1 | ? | . | ? | .
CCc1cc(=O)oc2cc(C)cc(OCC(=O)NCCc3c[nH]c4ccccc34)c12 | -19% | . | -4.7% | 8%
COc1ccc2nc(NC(=O)CCc3ccc(OC)c(OC)c3)sc2c1 | -17% | 4 | -1.4% | -17%
O=C(NCc1ccc(Cl)cc1)c1cccc(NC(=O)c2ccccc2)c1 | -6% | -3 | -2.6% | 24%
CCOC(=O)c1ccccc1NC(=O)CC1SC(=NC)N(C)C1=O (centres undefined) | -16% | -2 | 0.3% | 0%
C=CCNC(=S)Nc1cc(S(=O)(=O)N2CCOCC2)ccc1-n1cncn1 | -13% | -3 | 2.1% | -3%
CCOc1ccc(-n2c(C)cc(/C=N/NC(=O)C(N)=O)c2C)cc1 | 3% | 7 | -3.0% | -4%
Cc1ccc(C)c(SCC(=O)Nc2oc(C)c3c(C)n[nH]c(=O)c23)c1 | 30% | . | -0.1% | .
CCCn1c(SCC(=O)N2CCc3ccccc32)nnc1-c1ccco1 | -1% | 5 | 2.9% | -4%
CS(=O)(=O)N(CC(=O)NCc1ccncc1)c1cc(Cl)cc(Cl)c1 | 12% | 7 | -1.5% | -2%
Cc1cc(C)nc(N(C#N)C(C)C(=O)N(C)C)n1 (centres undefined) | -1% | -17 | -0.8% | -2%
CCNc1ccc(C(=O)N/N=C/c2c(C)nn(-c3ccccc3)c2N2CCCC2)cc1[N+](=O)[O-] | 1% | -2 | 1.4% | -4%
COc1ccc2c(=O)c3c(=O)n(Cc4ccco4)c(-c4ccc(C)cc4)nc3oc2c1 | 1% | 0 | -5.3% | -5%
O=C(O)CC(NC(=O)CCc1ccccc1)c1ccc(Cl)cc1 (centres undefined) | -12% | . | 0.0% | -1%
CN(Cc1ccccc1)Cc1nc2c(c(=O)n(C)c(=O)n2C)n1CCc1ccccc1 | 5% | . | 2.2% | .
Cc1nn(C)c(Cl)c1CN1CCN(C2CCCC2)C(CCO)C1 (centres undefined) | -1% | 3 | -3.1% | 2%
COc1ccc(NC(=O)CC2C(=O)N(C)C(=S)N2Cc2cccs2)cc1 (centres undefined) | 0% | -13 | -1.4% | 0%
COc1ccc(NC(=O)CC2C(=O)Nc3ccccc3N2CC(=O)N2CCCC2)cc1 (centres undefined) | -18% | . | ? | .
CCOC(=O)CC12CN3CN(C1)CC(CC(=O)OCC)(C3)C2=O | 1% | -3 | 5.8% | -5%
Cc1ccc(/C=C2\SC(=S)N(C3CCS(=O)(=O)C3)C2=O)cc1 (centres undefined) | 18% | 1 | 2.5% | 0%
O=C1NCC(c2ccccc2)C1C(=O)N/N=C/c1ccc(Cl)s1 (centres undefined) | -1% | 8 | -3.4% | -1%
COC(=O)C(Cc1ccccc1)NC(=O)CNC(=O)c1ccc(Br)cc1 (centres undefined) | -8% | . | 0.0% | 1%
CSc1nnc(-c2sc3cc(Cl)ccc3c2Cl)n1C | 1% | -13 | 1.0% | -16%
O=C(NCc1cccs1)c1cccnc1SCCS(=O)(=O)c1ccc(C(F)(F)F)cn1 | 22% | -13 | 0.7% | -7%
Cc1ccc(NC(=S)NCCSc2ccc(Cl)cc2)cc1 | 0% | -6 | 0.5% | 3%
COc1c(C(=O)Nc2ccc3[nH]c(=O)[nH]c3c2)cc2ccccc2c1Br | -30% | 8 | ? | -4%
CCCc1nnc(NC(=O)c2cn(CC)c3cc(N4CCN(C)CC4)c(F)cc3c2=O)s1 | 10% | 10 | -0.4% | -14%
COc1ccc(S(=O)(=O)N(CC(=O)NCC2CCCO2)Cc2ccccc2)cc1C (centres undefined) | 0% | . | -0.8% | 3%
CCOC(=O)c1sc(NC(=O)c2ccc(S(=O)(=O)N3CCOCC3)cc2)cc1C | 2% | -2 | 2.3% | -5%
CSc1sc(-c2nnc(SCC(=O)Nc3ccccc3)n2C)c2c1C=CCC2 | ? | -1 | ? | 0%
CCCc1ccc(-c2cc(NC(=O)CSc3n[nH]c(N)n3)n(-c3ccccc3)n2)cc1 | 5% | -11 | -0.6% | -79%
O=C(OCc1nc2ccccc2s1)c1cccc(S(=O)(=O)N2CCOCC2)c1 | 6% | -7 | ? | -40%
CCn1c2c(c3ccc(OC)cc31)CCCC2=O | 1% | -3 | 1.4% | -11%
Cc1c(C(=O)N2CCN(c3ccccn3)CC2)cccc1[N+](=O)[O-] | -3% | -9 | 0.7% | 1%
O=C(Cn1cc([N+](=O)[O-])ccc1=O)Nc1ccc2c(c1)OCO2 | 1% | . | 2.6% | .
Cc1ccc2cc(CN(CC3CCCO3)C(=S)NCc3ccco3)c(=O)[nH]c2c1 (centres undefined) | ? | ? | -4.2% | -3%
Cc1ccc(S(=O)(=O)NC(CC(C)C)C(=O)N2CCOCCOCCOCCOCC2)cc1 (centres undefined) | -2% | . | ? | 4%
COc1ccc(CC(=O)NC2CC(C)(C)NC(C)(C)C2)cc1 | -8% | -3 | 2.1% | -8%
COc1cccc(NC(=O)NC2(C(=O)N3CCN(C)CC3)CCCCC2)c1 | -3% | . | -1.9% | 4%
Cc1csc(SC(C)C(=O)Nc2ccc(S(=O)(=O)N3CCCC3)cc2)n1 (centres undefined) | 3% | -5 | -3.1% | 6%
O=[N+]([O-])c1c(Nc2ccccc2O)cc(N2CCOCC2)c2nonc12 | -25% | -8 | -0.7% | -12%
O=S(=O)(Nc1nc2ccccc2nc1-[n+]1ccccc1)c1ccc(Cl)cc1 | ? | -6 | ? | 0%
CC(=O)c1ccc(N2C(=NC(=O)CCc3ccccc3)SC3CS(=O)(=O)CC32)cc1 (centres undefined) | -10% | . | 2.1% | -1%
CC(C)CC(=O)c1c[nH]c(C(=O)NCc2cccs2)c1 | -4% | 5 | -0.3% | -3%
Cc1ccc(CNC(=O)c2cc3cc(Br)ccc3oc2=N)cc1 | -12% | . | -4.0% | -1%
Cc1ccccc1N1C(=O)C(Cl)=C(N2CCOCC2)C1=O | -11% | . | 0.4% | 1%
Cc1noc(N)c1C1(O)C(=O)Nc2c(Cl)cc(Cl)cc21 (centres undefined) | 14% | 3 | -4.3% | 1%
CCOc1ccccc1NC(=O)CN1CCCCCC1 | 2% | . | 3.4% | -8%
COc1ccc(CCN2C(=S)NC3CC2(C)Oc2ccc([N+](=O)[O-])cc23)cc1OC (centres undefined) | 22% | 4 | 0.4% | 19%
COc1ccc(CCNS(=O)(=O)c2ccc3c(c2)OCCO3)cc1OC | 15% | -17 | -0.4% | -7%
COCCNS(=O)(=O)c1cccn1-c1ncc(C(F)(F)F)cc1Cl | 2% | 4 | 0.0% | -3%
Cc1ccc(C)c(N2CCN(C(=O)CCc3nc(-c4ccccc4Cl)no3)CC2)c1 | 2% | . | 0.2% | .
COc1cccc(CC(=O)OCC(=O)Nc2nnc(-c3ccccc3)o2)c1 | -5% | . | 4.8% | .
Cc1cnc(NC(=O)CSc2nnc(-c3ccccc3)n2Cc2ccccc2)s1 | 16% | 4 | -0.7% | -2%
COc1cc(C#Cc2c(-c3cncn3C)n(C)c3ccc(-c4ccc5[nH]ccc5c4)cc23)cc(OC)c1 | 3% | . | 0.0% | .
Cc1ccc(S(=O)(=O)NCc2ccc(N3CCN(C(=O)OC(C)(C)C)CC3)cc2)cc1 | 0% | . | -0.6% | -3%
O=S(=O)(NCc1nnc2ccccn12)c1ccc(F)cc1 | -4% | . | 1.5% | .
S=C(NCc1ccco1)Nc1ccc(Cl)cc1 | 0% | 0 | -3.9% | -9%
CC1(C)OC(=O)C(=NNc2ccc(O)cc2)C(=O)O1 | 1% | 2 | 5.5% | -4%
Cc1ccc(Cn2c(C3CCCN3c3nc(-c4cc(Cl)c(N)c(Cl)c4)cs3)nc3cc(C(=O)NCCCO)ccc32)cc1 (centres undefined) | 3% | . | 1.9% | .

One compound at a time (already shown):
Results for COc1ccc(CCNS(=O)(=O)c2ccc3c(c2)OCCO3)cc1OC : Rango release inh: 15%; GLA inh pH 4.5: -17; Rango complex inh: -0.4%; miR-21 FLuc: -7%
Results for CC(=O)c1ccc(N2C(=NC(=O)CCc3ccccc3)SC3CS(=O)(=O)CC32)cc1 (centres undefined) : Rango release inh: -10%; GLA inh pH 4.5: .; Rango complex inh: 2.1%; miR-21 FLuc: -1%

The results go on:
SMILES | Rango release inh | GLA inh pH 4.5 | Rango complex inh | miR-21 FLuc
O=C(Nc1ccc(CCC(=O)N2CCCC2)cc1)c1ncn[nH]1 | -19% | -6 | 4.2% | -3%
Cc1ccc(S(=O)(=O)N2CCCCC2CCNC(=O)C(=O)Nc2ccccc2F)cc1 (centres undefined) | 4% | . | -0.3% | .
Cc1cc(C)c2c(CN3CCOCC3)cc(=O)oc2c1 | 1% | -5 | -2.2% | -11%
COc1ccc2cc(C3CC(c4ccco4)=NN3S(=O)(=O)c3ccccc3)c(Cl)nc2c1 (centres undefined) | 11% | -9 | 2.3% | -16%
CCc1nc(SCc2ccc(C(=O)OC)o2)n[nH]1 | 2% | 7 | 7.5% | -7%
O=S(=O)(NCCc1c[nH]c2ccccc12)c1ccccc1 | -10% | . | -2.2% | -2%
CC1(C)Oc2ccc3ccc(=O)oc3c2/C(=C/Nc2ccccn2)C1=O | 11% | 3 | -0.1% | -3%
O=C1NC(=NCc2ccccc2)NC1(c1ccccc1)c1ccccc1 | 17% | . | 7.3% | .
Nc1nc(SCC(=O)c2cccc([N+](=O)[O-])c2)n[nH]1 | -8% | 3 | -1.2% | -3%
COc1ccc(NC2CCCN(Cc3cccc4cnccc34)C2)cc1OC (centres undefined) | 6% | . | 2.5% | 13%
CS(=O)(=O)N(CC(=O)Nc1ccccc1C(=O)NCc1ccco1)c1ccccc1F | -7% | -1 | -4.2% | -1%
COC(=O)c1ccc(C(=O)NC2CCCc3c2cnn3-c2ccc(C)c(C)c2)cc1 (centres undefined) | -6% | . | 0.2% | 16%
Cn1c(=O)c2c(nc(CN3CCN(c4ccc(F)cc4)CC3)n2CCN2CCOCC2)n(C)c1=O | 0% | 0 | 0.3% | -2%
Cc1ccc([N+](=O)[O-])cc1NC(=O)CCc1ccccc1 | -12% | -2 | -7.9% | 4%
COC(=O)c1nc(C(=O)OC)c(C(=O)OC)nc1C(=O)OC | 4% | 2 | 1.7% | -2%
CCn1c(SCc2c(Cl)cccc2Cl)nc2nc3c(cc2c1=O)CCCC3 | -13% | . | -1.4% | .
c1ccc2c(-c3nc4ncccc4o3)cccc2c1 | 4% | 5 | -1.4% | -37%
CCN(C(=O)COC(=O)c1cnccn1)c1cccc2ccccc12 | 0% | . | -2.1% | .
Cc1ccc(NC(=O)Nc2cc(-c3ccccc3)nn2C)cc1Cl | 24% | -6 | 1.2% | 1%
COc1ccc2nc3ccccc3nc2c1NC(=O)c1ccc(Cl)cc1 | -8% | 2 | 0.0% | -9%

Three of the compounds above, with values ahead of the structure:
Rango release inh	GLA inh pH 4.5	Rango complex inh	miR-21 FLuc	SMILES
-8%	3	-1.2%	-3%	Nc1nc(SCC(=O)c2cccc([N+](=O)[O-])c2)n[nH]1
1%	-5	-2.2%	-11%	Cc1cc(C)c2c(CN3CCOCC3)cc(=O)oc2c1
-12%	-2	-7.9%	4%	Cc1ccc([N+](=O)[O-])cc1NC(=O)CCc1ccccc1

Later entries
SMILES | Rango release inh | GLA inh pH 4.5 | Rango complex inh | miR-21 FLuc
Cc1ccccc1OCc1nnc(SCC(=O)O)n1-c1ccccc1 | -5% | . | 4.0% | -4%
N#Cc1cc2c(N)c(C(=O)Nc3ccccc3)sc2nc1N | . | -3 | . | -39%
COc1ccc(C)cc1NC(=O)CNC(C)C(=O)Nc1cc(Cl)ccc1Cl (centres undefined) | -16% | -8 | 0.0% | -12%
COCCn1c(SCC(=O)NC2CC2)nnc1-c1ccc(Cl)cc1 | -2% | . | -0.3% | .
CCOc1nc(NCc2ccco2)nc(Nc2ccccc2F)n1 | -1% | 1 | 1.5% | -50%
CN(C)c1ccc(N=Nc2ccc(C(=O)O)cc2)cc1 | 10% | . | ? | 3%
Cc1cc(C(=O)CSc2n[nH]c(N)n2)c(C)n1-c1cc(F)ccc1F | 6% | 0 | -2.6% | -40%
